# High-throughput results deposited in PubChem by Broad Institute.
# FGF22 binding: FGF22 (human) thermal shift binding | recombinant FGF22 thermal shift, SYPRO orange fluorescence; percent of sucrose octasulfate shift, DMSO zero | Q9HCT0 | calls only at 9.99 µM | hit rate 1.5% among 340,000;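 active = melting point raised past a set limit in the mean and every replicate; three in four hits are not shown here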
# Target sequence (Q9HCT0 whole entry, looked up): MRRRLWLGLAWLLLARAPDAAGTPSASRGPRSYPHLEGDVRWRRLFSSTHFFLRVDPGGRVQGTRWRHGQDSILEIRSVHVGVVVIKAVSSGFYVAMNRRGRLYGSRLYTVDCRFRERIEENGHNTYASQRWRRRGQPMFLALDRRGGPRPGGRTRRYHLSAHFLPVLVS
# Ecoli rRNA inh: inhibitors of bacterial rRNA selective over humanized ribosomes; E. coli WT GFP vs humanized-ribosome RFP mutants, fluorescence, 24 h; hits give low values; DMSO median 0, no signal -100; GFP signal change (wild-type ribosome), % (concentration not given with the values); hit rate 1.6% among 350,000; AID 720706;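 active = significant combined selectivity score with lowered wild-type GFP, culture density cut under 30%, mutant RFP and density less affected; inactive = any of these conditions unmet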; also: one replicate is shown; some compounds called inactive have numbers as strong as hits
# Ecoli rRNA inh OD600: also measured in Ecoli rRNA inh; calls as there; OD600 change, %; measured here: OD600 growth;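 optical density of the mix in the first replicate; 0 = DMSO median and -100 = no signal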
# Ecoli rRNA inh RFP: second read-out of Ecoli rRNA inh, no call of its own (marks repeat the call); RFP signal change, %; measured here: RFP humanized mutant strains;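 first replicate; 0 = DMSO median and -100 = no signal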
# An asterisk follows results filed as active; i = inactive. A portion of the library (hit frequency here may not be typical).
SMILES,FGF22 binding,Ecoli rRNA inh,Ecoli rRNA inh OD600,Ecoli rRNA inh RFP
Cc1noc(C)c1S(=O)(=O)Nc1ccc2c(c1)C(=O)N([C@@H](C)CO)C[C@@H](C)[C@H](CN(C)C(=O)Nc1cccc3ccccc13)OCCCC[C@@H](C)O2,i,-6,-16,-0.6
C[C@@H]1CN([C@@H](C)CO)C(=O)Cc2cc(NS(C)(=O)=O)ccc2O[C@@H]1CN(C)Cc1ccc2c(c1)OCO2,i,4,6,-2.7
COc1ccc(S(=O)(=O)N(C)C[C@@H]2OCc3cn(nn3)CCCC(=O)N([C@@H](C)CO)C[C@@H]2C)cc1,i,-1,-2,-1.1
CN1CCN(C(=O)C[C@H]2CC[C@@H]3[C@H](COc4ccc(NC(=O)C5CC5)cc4C(=O)N3C)O2)CC1,i,3,0,-1.1
Cc1noc(C)c1NC(=O)Nc1ccc2c(c1)CC(=O)N([C@H](C)CO)C[C@H](C)[C@@H](CN(C)S(=O)(=O)c1ccc(F)cc1)O2,i,4,3,-3.0
COc1ccc(S(=O)(=O)Nc2cccc3c2O[C@@H](CN(C)C(=O)NC(C)C)[C@@H](C)CN([C@H](C)CO)C3=O)cc1,i,-1,1,0.3
CC=Cc1ccc2n(c1=O)C[C@H]1[C@H](CO)[C@@H](C(=O)NCCc3ccccc3)N(C(C)=O)[C@@H]21 (mixture of isomers),i,-1,0,0.3
CO[C@H]1CN(C)C(=O)c2cc(NC(=O)Nc3cc(F)ccc3F)ccc2OC[C@@H](C)N(C)C[C@@H]1C,i,0,-3,0.2
C[C@H]1CN([C@@H](C)CO)C(=O)Cc2cc(NS(=O)(=O)c3ccccc3)ccc2O[C@H]1CN(C)C(=O)NC1CCCCC1,i,5,-1,-3.0
C[C@H]1CN([C@@H](C)CO)C(=O)c2cc(C3=CCCCC3)cnc2O[C@H]1CN(C)C(=O)Nc1ccccc1,i,4,1,2.6
COc1cccc(-c2cnc3c(c2)C(=O)N([C@H](C)CO)C[C@H](C)[C@H](CN(C)S(=O)(=O)c2cccc(OC)c2)O3)c1,i,1,-6,6.2
C[C@@H]1CN([C@H](C)CO)C(=O)c2ccccc2-c2ccccc2CO[C@H]1CN(C)S(=O)(=O)c1cccc(F)c1,i,-5,3,-6.0
CN1CCN(C(=O)C[C@@H]2C[C@@H]3c4cc(NC(=O)Nc5ccc(F)cc5)ccc4O[C@@H]3[C@@H](CO)O2)CC1,i,-1,8,-2.9
CO[C@@H]1CN(C)C(=O)c2ccc(NC(=O)C3CCCC3)cc2OC[C@H](C)N(S(C)(=O)=O)C[C@H]1C,i,-2,0,-1.4
O=C(NCCN1CCCC1)[C@H]1[C@H](CO)[C@H]2Cn3c(cccc3=O)[C@@H]1N2C(=O)c1ccccc1,i,-1,7,-2.2
Cc1ccc(-c2ccc3c(c2)O[C@H](CN(C)Cc2cccc(C(=O)O)c2)[C@@H](C)CN([C@H](C)CO)S3(=O)=O)cc1,i,-14,-20,2.7
CO[C@@H]1CN(C)C(=O)c2cc(NS(=O)(=O)c3ccccc3F)ccc2OC[C@H](C)NC[C@@H]1C,i,3,1,-1.7
COc1ccc2c3c([nH]c2c1)[C@@H](CO)N(C)CC31CCN(C(=O)C2CC2)CC1,i,2,5,4.0
C[C@@H]1CN([C@H](C)CO)C(=O)c2ccccc2-c2ccccc2CO[C@@H]1CN(C)S(=O)(=O)c1ccccc1C#N,i,-3,1,-1.6
CCNC(=O)[C@H]1[C@H](CO)[C@H]2Cn3c(ccc(-c4ccccc4)c3=O)[C@H]2N1C(=O)C1CC1,i,4,2,-0.5
C[C@@H]1CN([C@H](C)CO)S(=O)(=O)c2ccc(Br)cc2O[C@@H]1CN(C)S(C)(=O)=O,i,1,7,-3.9
CCC(=O)N1C[C@H](C)[C@@H](OC)CN(C)C(=O)c2ccc(NC(=O)NC(C)C)cc2OC[C@@H]1C,i,1,1,0.4
CC(C)NC(=O)Nc1ccc2c(c1)C(=O)N([C@H](C)CO)C[C@H](C)[C@H](CN(C)Cc1ccncc1)OCCCC[C@H](C)O2,i,-3,7,-0.8
COc1ccc(CN(C)C[C@@H]2Oc3ccc(NC(=O)c4ccncc4)cc3C(=O)N([C@H](C)CO)C[C@H]2C)cc1,i,-3,-8,-0.5
COc1cccc(S(=O)(=O)N[C@@H]2CC[C@H](CCNC(=O)Nc3cc(F)ccc3F)O[C@@H]2CO)c1,i,-6,5,-4.0
C[C@H]1CCCCO[C@@H](CN(C)C)[C@@H](C)CN([C@@H](C)CO)C(=O)c2cc(NS(=O)(=O)c3cccs3)ccc2O1,i,-2,-1,-2.4
Cc1ccc(S(=O)(=O)N(C)C[C@H]2Oc3ncc(-c4ccccc4)cc3C(=O)N([C@H](C)CO)C[C@@H]2C)cc1,i,-8,-12,6.2
C[C@@H]1CN([C@@H](C)CO)C(=O)Cc2cc(NS(=O)(=O)c3ccc(Cl)cc3)ccc2O[C@@H]1CN(C)S(C)(=O)=O,i,0,-4,1.5
CCC(=O)N1[C@@H]2Cn3c(ccc(-c4ccccc4)c3=O)[C@H]1[C@@H](C(=O)N(C)C)[C@@H]2CO,i,1,5,-0.4
COc1cccc(NC(=O)N(C)C[C@@H]2Oc3cc(C#CC4(O)CCCC4)ccc3S(=O)(=O)N([C@@H](C)CO)C[C@H]2C)c1,i,1,-11,0.8
COc1ccc(S(=O)(=O)N(C)C[C@@H]2Oc3cc(C#CC4CCCC4)ccc3S(=O)(=O)N([C@@H](C)CO)C[C@@H]2C)cc1,i,-4,8,-4.3
CNC(=O)C[C@@H]1CC[C@@H]2[C@H](COc3ccc(NC(=O)Nc4ccc(F)cc4)cc3C(=O)N2C)O1,i,3,-5,-0.5
C[C@@H]1CN([C@@H](C)CO)C(=O)c2cccc(NC(=O)Nc3ccc(F)cc3)c2O[C@@H]1CN(C)C(=O)Nc1cccc2ccccc12,i,-1,-6,1.2
O=C([C@H]1[C@H](CO)[C@H]2Cn3c(cccc3=O)[C@H]2N1CC1CCCC1)N1CCc2ccccc2C1,i,-5,-11,4.7
C[C@@H]1CN([C@H](C)CO)C(=O)Cc2cc(NC(=O)Nc3ccc4c(c3)OCO4)ccc2O[C@H]1CN(C)S(=O)(=O)c1ccccc1,i,-3,-12,-1.5
C[C@@H]1CN([C@H](C)CO)C(=O)c2cc(NS(=O)(=O)c3cccs3)ccc2O[C@H]1CN(C)C(=O)Nc1ccccc1,i,5,9,-2.8
CO[C@@H]1CN(C)C(=O)c2ccc(NC(=O)Nc3cc(F)ccc3F)cc2OC[C@H](C)N(C(=O)c2ccccn2)C[C@H]1C,i,-3,2,1.0
O=C(C[C@H]1CC[C@@H](NC(=O)C2CC2)[C@@H](CO)O1)NCCCN1CCOCC1,i,-2,5,-0.4
Cc1nn(C)cc1NC(=O)C[C@@H]1CC[C@H]2[C@H](COc3ccc(NC(=O)C(C)C)cc3C(=O)N2C)O1,i,1,1,-2.9
C#CCN1CC(COc2ccccc2)OCCS1(=O)=O (stereo not drawn),i,4,0,4.7
O=C(C[C@@H]1CC[C@H]2[C@@H](COC[C@@H](O)CN2Cc2ccc(Oc3ccccc3)cc2)O1)N1CCN(c2ccccc2)CC1,i,-11,-32,30
Cc1cc(C(=O)Nc2cccc3c2O[C@@H](CN(C)S(=O)(=O)c2ccccc2)[C@@H](C)CN([C@@H](C)CO)C3=O)n(C)n1,i,0,-1,-0.4
COCC#Cc1ccc2c(c1)O[C@H](CN(C)S(=O)(=O)c1ccc(C)cc1)[C@@H](C)CN([C@H](C)CO)S2(=O)=O,i,-5,-12,-1.8
COc1ccc(CN(C)C[C@H]2Oc3ccc(NC(=O)Cc4ccccc4)cc3C(=O)N([C@H](C)CO)C[C@H]2C)cc1,i,-2,-7,-2.1
COCc1cn(CC[C@@H]2CC[C@@H](NC(=O)c3ccncc3)[C@@H](CO)O2)nn1,i,2,7,-2.8
COc1ccc(CN(C)C[C@@H]2Oc3c(NC(=O)CCCCCC(=O)Nc4ccccc4N)cccc3C(=O)N([C@H](C)CO)C[C@H]2C)cc1,i,-9,-15,0.3
C[C@@H]1CN([C@@H](C)CO)C(=O)Cc2cc(NC(=O)CCC(F)(F)F)ccc2O[C@@H]1CN(C)C,i,7,17,-2.1
CNC(=O)C[C@@H]1CC[C@@H]2[C@H](COc3ccc(NC(=O)Nc4ccc(Cl)cc4)cc3C(=O)N2C)O1,i,0,-2,1.1
C[C@@H]1CN([C@H](C)CO)C(=O)c2cc(C#CC3CCCCC3)cnc2O[C@H]1CN(C)S(C)(=O)=O,i,0,0,1.6
COc1ccc(NC(=O)N(C)C[C@@H]2Oc3ncc(C#C[C@@H](C)O)cc3C(=O)N([C@H](C)CO)C[C@@H]2C)cc1,i,5,4,-2.3
C[C@@H]1CN([C@H](C)CO)C(=O)CCCn2cc(nn2)CO[C@H]1CN(C)C,i,3,6,-1.5
CCCC(=O)Nc1ccc2c(c1)C(=O)N(C)C[C@H](OC)[C@H](C)CN(Cc1ccccc1F)[C@@H](C)CO2,i,-5,-7,3.3
C[C@@H]1CN([C@H](C)CO)C(=O)Cc2cc(NC(=O)c3ccncc3)ccc2O[C@H]1CN(C)S(=O)(=O)c1ccccc1,i,1,3,-2.4
C[C@@H]1CN([C@@H](C)CO)C(=O)c2cc(NS(C)(=O)=O)ccc2O[C@@H](C)CCCCO[C@H]1CN(C)S(=O)(=O)c1cn(C)cn1,i,4,5,-1.8
CNC[C@H]1Oc2ccc(NC(=O)Nc3ccc(F)cc3)cc2C(=O)N([C@@H](C)CO)C[C@H]1C,i,7,12,0.7
COc1cccc(CNC(=O)C[C@@H]2C=C[C@H](NC(=O)C3CCOCC3)[C@H](CO)O2)c1,i,2,-5,1.6
CO[C@@H]1CN(C)C(=O)c2cc(NC(=O)C3CCC3)ccc2OC[C@@H](C)N(C(=O)NC(C)C)C[C@H]1C,i,1,3,1.0
CCNC(=O)[C@H]1[C@H](CO)[C@H]2Cn3c(ccc(-c4ccccc4)c3=O)[C@H]2N1C(=O)Cc1cccnc1,i,1,2,-1.1
CCC(=O)N(C)C[C@@H]1Oc2ncc(C#Cc3ccc(OC)cc3)cc2C(=O)N([C@@H](C)CO)C[C@@H]1C,i,2,6,-3.4
C[C@@H]1CN([C@@H](C)CO)C(=O)Cc2cc(NS(=O)(=O)c3ccccc3)ccc2O[C@H]1CN(C)Cc1ccccc1,i,0,-19,5.6

# (continued)
SMILES,FGF22 binding,Ecoli rRNA inh,Ecoli rRNA inh OD600,Ecoli rRNA inh RFP
C[C@@H]1CN([C@@H](C)CO)C(=O)Cc2cc(NC(=O)Cc3ccccc3)ccc2O[C@H]1CN(C)CC1CCCCC1,i,0,-3,-0.9
Cc1noc(C)c1NC(=O)Nc1ccc2c(c1)C(=O)N([C@H](C)CO)C[C@H](C)[C@H](CN(C)CC1CC1)O2,i,7,-1,-0.5
C[C@H]1CN([C@@H](C)CO)C(=O)c2cccc(NC(=O)Nc3ccc(F)cc3)c2O[C@@H]1CN(C)C,i,5,6,1.3
CNC[C@H]1OCCCC[C@H](C)Oc2ccc(NS(=O)(=O)c3c(C)noc3C)cc2C(=O)N([C@H](C)CO)C[C@H]1C,i,3,1,-0.1
C[C@@H]1CN([C@H](C)CO)C(=O)c2cc(NC(=O)CCC(F)(F)F)ccc2O[C@H]1CN(C)S(=O)(=O)c1ccccc1,i,0,4,2.1
c1ccc(-c2ccc([C@H]3[C@H]4CNC[C@@H]3N4Cc3cc(-c4ccccc4)on3)cc2)cc1,i,-57,-79,-13
C[C@H]1CN([C@@H](C)CO)C(=O)Cc2cc(NS(=O)(=O)c3cn(C)cn3)ccc2O[C@@H]1CN(C)C(=O)NC1CCCCC1,i,3,0,-4.0
C[C@H](NC(=O)C[C@@H]1C[C@@H]2c3cc(NC(=O)C4CCOCC4)ccc3O[C@@H]2[C@@H](CO)O1)c1ccccc1,i,-1,-8,-0.7
O=C(c1ccc2c(c1)OCO2)N1CC[C@@H]2[C@H]1c1cc(-c3ccc(F)cc3)ccc1N[C@@H]2CO,i,2,4,12
